# High-throughput results: PubChem, several laboratories
# PrP 5UTR inh: suppresses PrP 5' UTR mRNA reporter expression. cell-based PrP 5' UTR mRNA reporter, plate reader. inhibition, % (no concentration beside the values). 0.35% of 340,000 active;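 active = every replicate at 50% or more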;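 note: 0 = median of the neutral control wells; tested in H4 reporter cells; numbers are from one replicate; inactives centre near -14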
# Autofluor counter: flagged as autofluorescent in microsphere protease counterscreen; compound autofluorescence counterscreen, microsphere flow cytometry; active compounds read high; fluorescence intensity (no concentration beside the values); 3.1% of 360,000 active;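 active = at least 3 SD above the mean of all compounds, about 16000 in these data; inconclusive = too few beads counted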;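 note: 100 nL of 1 mM stock went into each well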
# BJeLR lethal: BJeLR cell viability loss; inhibition, % (concentration not given with the values); BJeLR (HRASV12) viability, CellTiter-Glo ATP luminescence, 48 h; reference of the scale not given here; 0.17% of 300,000 active; AID 1554;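 active = replicate mean above 50%; inconclusive = above 50% but judged a plate artefact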;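 note: 50 nL library stock added to about 25 µL; numbers are from one replicate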
# Mtb hypoxia inh: inhibitors of hypoxia-regulated fluorescent reporter in Mycobacterium tuberculosis | M. tuberculosis hypoxia-regulated fluorescent reporter, fluorescence | AID 1159583 | fluorescence inhibition, % (no concentration beside the values) | 0.1% of 300,000 active;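 active = 35 to 45% if threefold the growth effect, above 45% if 1.5-fold the growth effect; inactive = the rest, general growth blockers included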;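 note: wells of about 50 µL received 100 nL stock; 0% = vehicle wells and 100% = reference inhibitor wells; whole bacteria with a GFP reporter of the hypoxia response; strong numbers were not always called active; many hits fall short of the cut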
# Sa ugtP lethal: growth inhibition of S. aureus ugtP deletion strain. growth inhibition, % (no concentration beside the values). AID 1259309. S. aureus RN4220 ugtP deletion, OD600 growth, 16 h; some inactives read as strong as hits. 0.54% of 330,000 active;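 active = z-score under -3 and OD600 up to 0.15 on both plates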;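 note: plate controls were untreated wells for no effect and antibiotic for full effect; wells of about 80 µL received 100 nL stock; the first replicate is given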
# RN4220 kill: kills Staphylococcus aureus RN4220 | S. aureus RN4220 growth, OD600, 16 h | inhibition, % (test concentration not listed) | 0.33% of 330,000 active;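 active = z-score of -3 or lower and OD600 up to 0.18 on both plates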;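 note: plate controls were untreated cells for no effect and reference antibiotic for full effect; stock transfer was 100 nL into about 80 µL; one replicate is shown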
# Mtb hypoxia inh growth: recorded beside Mtb hypoxia inh, whose call it bears; growth inhibition, %; measured here: M. tuberculosis growth (absorbance);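 0% = vehicle and 100% = reference antibiotic; read after six days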
# * = called active by the depositor; ? = inconclusive; nt = no result given.
canonical_smiles,PrP 5UTR inh,Autofluor counter,BJeLR lethal,Mtb hypoxia inh,Mtb hypoxia inh growth,Sa ugtP lethal,RN4220 kill
CCN(CC)CCN1Cc2ccccc2C1=N,-14,10105,4,3,0,1,-0.1
Cc1nc2ccccc2c2oc(C(=O)N3CCN(C(=O)c4ccco4)CC3)cc12,-5,4224,2,nt,nt,-9,-5.0
O=c1[nH]c2ccc(NC(=S)NC3CCCCC3)cc2[nH]1,-27,4266,0,5,-1,-8,-2.3
COc1nccc(NCc2ccccc2)c1C#N,nt,3287,1,7,-6,8,2.4
O=C(O)c1cc(-c2ccccc2)n[nH]1,-3,4018,-7,2,4,3,3.8
COCCN1C(=O)c2ccc(C(=O)NCc3cccnc3)cc2C1=O,-17,9930,-2,-8,4,1,1.4
COC(=O)c1ccn(-c2nc(-c3ccco3)cc(C(F)(F)F)n2)n1,-30,8235,-4,8,18,-10,1.4
O=C(C1CCN(CCCc2ccccc2)CC1)N1CCCCC1,-16,2793,-10,nt,nt,0,1.6
COc1ncnc2c1oc1ccccc12,-66,2382,-4,1,-1,11,4.8
Cc1cc(N2CCN(C(=O)Nc3ccc(F)cc3F)CC2)c2ccccc2n1,-28,3710,4,9,8,17,-4.2
CCOC(=O)c1ccc(NCCc2ccc(OC)c(OC)c2)c(N)c1,-6,3476,1,16,8,6,7.9
CCOc1ccc(-c2cc(C(=O)N3CCCC3)c3ccccc3n2)cc1,-37,6116,5,2,3,0,-0.6
COc1ccc(OCCCn2cccc2/C=C2/C(=N)N3OC(C)=CC3=NC2=O)cc1,-17,2502,-2,22,15,2,3.7
O=CN(Cc1ccco1)C1(C(=O)NC2CCCCC2)CCCCC1,-38,22071*,0,7,2,-3,0.0
O=c1[nH]c(-[n+]2ccc3ccccc3c2)c(/C=N/N=C(\[O-])c2ccccc2)s1,-10,5244,0,nt,nt,nt,nt
Cn1c(SCC(=O)N/N=C/C=C\c2ccccc2[N+](=O)[O-])nc2ccccc21,-15,2521,0,nt,nt,nt,nt
O=C(/C=C/c1c(Cl)cccc1Cl)n1cccn1,-23,9225,6,-3,-1,-8,0.0
CC1CCN(c2cc(N3CCC(C)CC3)c([N+](=O)[O-])cc2/C=C(\C#N)c2nn(-c3ccccc3)c(N)c2C#N)CC1,-21,3290,-6,nt,nt,-1,0.4
COc1ccc(/C=N/OCC(=O)Nn2c(C)nc3ccccc3c2=O)cc1,-14,8991,-15,nt,nt,nt,nt
CC(=O)NC1(C(F)(F)F)NC(=O)N(CC(C)C)C1=O (stereo not given),-12,4383,8,nt,nt,-1,7.4

# An excerpt of these results, with values under each structure:
# Values run as follows: PrP 5UTR inh	Autofluor counter	BJeLR lethal	Mtb hypoxia inh	Mtb hypoxia inh growth	Sa ugtP lethal	RN4220 kill
> CCOc1ccc(-c2cc(C(=O)N3CCCC3)c3ccccc3n2)cc1
→ -37	6116	5	2	3	0	-0.6
> COc1ccc(OCCCn2cccc2/C=C2/C(=N)N3OC(C)=CC3=NC2=O)cc1
→ -17	2502	-2	22	15	2	3.7

# (listing goes on)
canonical_smiles,PrP 5UTR inh,Autofluor counter,BJeLR lethal,Mtb hypoxia inh,Mtb hypoxia inh growth,Sa ugtP lethal,RN4220 kill
COc1ccc(NC(=S)N2CCN(S(=O)(=O)c3ccc(OC)cc3)CC2)cc1,3,5419,nt,-14,-6,1,1.4
CC(C)OC(=O)c1c(NC(=O)CCn2nnc3ccccc32)sc2c1CCCC2,-15,20341*,2,6,11,79,4.0
CCn1c2ccccc2c2cc(NC(=O)c3ccc(C)c([N+](=O)[O-])c3)ccc21,-54,2515,6,14,10,-11,14
COc1cnc(-c2ccccn2)nc1Oc1ccc(Cl)c2ccccc12,9,17538*,-3,11,22,4,-3.3
Cc1ccc(-c2csc3nc[nH]c(=O)c23)c(C)c1,1,4016,-16,3,18,-11,-0.2
CNc1ccc(S(=O)(=O)NC)cc1[N+](=O)[O-],-3,3775,-12,5,15,1,1.1
O=C(CS(=O)(=O)c1ccc(Br)cc1)N1CCOCC1,-17,5982,6,18,2,14,1.9
COc1ccc(C(=O)NCC(=O)OCC(=O)NC(=O)NC2CCCCC2)cc1OC,-4,2981,-4,nt,nt,1,-0.2
CC(C)Cn1c(=O)c2c(c3ccccc31)OC(C)C(=O)N2 (stereo not given),-25,2939,-5,nt,nt,4,1.8
COC(=O)c1ccc(CN2CCN(CCC(C)C)C(CCO)C2)cc1 (stereo not given),-2,2271,2,-19,7,0,0.2
CC1=CC(C)(C)[N+](C)(C)c2ccccc21,-10,4363,-7,6,-2,13,2.6
O=C(NC(CC(=O)N1CCN(c2ccc([N+](=O)[O-])cc2)CC1)c1ccccc1)c1ccccc1Cl (stereo not given),-19,2024,-8,13,-7,18,0.8
CCCCN(CCCNc1ncnc2nc[nH]c12)c1ccccc1,-107,4295,8,2,2,-9,9.5
CCN(CC)S(=O)(=O)c1ccc(S(=O)(=O)Nc2cc3c(cc2C(C)=O)OCO3)cc1,-20,7408,-3,5,2,8,10.0
COc1cccc(CNCCN2CCOCC2)c1OC,-19,4808,4,nt,nt,8,-1.0
CC1CCN(C(=O)COC(=O)c2ccc3ccccc3n2)CC1,-25,5836,nt,7,-2,-3,1.5
COC(=O)[C@H](CC(C)C)NS(=O)(=O)N[C@@H](CC(C)C)C(=O)OC,-4,4101,nt,4,7,-9,-12
CCn1cc(/C=N/NC(=O)c2ccc3c(c2)OCO3)cn1,-11,2143,-4,nt,nt,nt,nt
CC1CC(C)CN(C(=O)CNS(=O)(=O)c2cccs2)C1 (stereo not given),-19,3193,5,2,-10,15,3.1
CCN(CC(=O)Nc1ccccc1OC)Cc1csc(CC(=O)Nc2ccc(C)cc2)n1,-23,3980,nt,12,-2,-1,2.7
Cc1cc(N/N=C/c2ccc(N(C)C)cc2)c2ccccc2n1,-7,3946,1,nt,nt,nt,nt
COc1ccc(C=NNC(=O)c2ccco2)cc1Cn1nc(C)c([N+](=O)[O-])c1C,nt,nt,nt,-12,2,3,11
COc1cc(NC(=S)NCCC(c2ccccc2)c2ccccc2)cc(OC)c1,-7,2560,-10,13,-2,21,-8.2
C/C(=N/OC(=O)c1ccc(F)cc1)c1ccc(C)cc1,-15,3424,-11,nt,nt,nt,nt
C=CCc1c(C)nc(-c2ccccc2)nc1NN=C(C)c1ccccc1,nt,nt,nt,-15,-3,24,-0.1
COc1ccc(-n2nnnc2SCC(=O)Nc2cccc(C)n2)cc1OC,-26,6921,4,4,6,1,0.9
COc1ccccc1Nc1c2c(nc3ccc(N)cc13)CCCC2,-46,3312,1,1,8,11,3.7
Oc1ccc(C2=NN(c3ccccc3)C(c3ccc(F)cc3)C2)cc1 (stereo not given),-18,3651,3,2,-5,79,0.9
CCN(CC)C(=S)NC(=O)c1ccc(OC)c(Br)c1,0,9185,4,4,2,4,1.5
Cc1nnnn1C(=Cc1ccccc1)C(=O)OCC(=O)N1CC2(C)CC1CC(C)(C)C2 (stereo not given),nt,nt,nt,7,6,-12,-7.4
CN(C)CCCNC(=S)N(CCN(C)C)Cc1cc2cc3c(cc2[nH]c1=O)OCCO3,-1,4430,2,8,2,6,2.6
COc1cc(O)c2c(c1)OC(C)(C)CC2=O,-21,3660,0,4,8,3,1.7
CCCn1nc2cc(C(=O)N(CC)c3ccc(OC)cc3)ccc2c1OCC,-20,3665,6,11,7,-12,4.8
N/C(=N\OC(=O)c1cccc(Br)c1)c1ccc(Br)cc1,-34,3015,2,nt,nt,nt,nt
Cc1c(S(=O)(=O)N2CCOCC2)c(=O)n(C)c(=O)n1C,-12,4313,-10,2,3,-2,-8.8
O=C1CC(C(=O)N2CCOCC2)C2(CCCC2)O1 (stereo not given),-14,4140,4,8,5,-3,5.5
COCCCNC(=O)C[C@H]1C[C@H](C(=O)N2CCCCC2)[C@@]2(CCc3ccccc3)c3[nH]c4cc(-c5ccco5)ccc4c3CCN2C1=O,-7,4205,nt,2,3,-20,4.0
O=C(c1cccs1)N1CCN(c2nc3c(F)cc(F)cc3s2)CC1,-52,?,-9,12,2,2,4.0
Cc1ccc(C2(C)NC(=O)N(CC(=O)NC(=O)NC(C)(C)C)C2=O)cc1 (stereo not given),-8,5894,0,5,14,-2,5.7
O=C(CSc1ncnc2sc3c(c12)CCC3)N1CCOCC1,-15,3598,9,21,7,-3,3.7
O=S(=O)(NOCc1ccc(Cl)cc1)c1ccc(Cl)cc1,-17,3084,5,5,-2,12,1.7
CC1=C(C(=O)OC(C)(C)C)C(c2cccc3ccccc23)NC(=O)N1 (stereo not given),-21,3021,0,5,-4,-6,2.4
CCCOc1ccc(S(=O)(=O)n2cc(Br)c(=O)[nH]c2=O)cc1,-5,11380,0,5,4,-20,12
O=C(O)CC1(CC(=O)Nc2ccccc2C(=O)c2ccccc2)CCCC1,0,4286,-2,7,18,0,2.1
CN1CCN(S(=O)(=O)c2cccc(C(=O)Nc3ccccc3N3CCCC3)c2)CC1,-17,5110,-14,3,-14,2,-0.2
COc1cccc(N(CC(=O)NCCSc2ccccn2)S(=O)(=O)c2ccccc2)c1,4,2907,-5,-9,-2,1,2.0
Cc1cc(C)nc(NS(=O)(=O)c2ccc(NC(=S)NC(=O)CC(C)C)cc2)n1,-16,2779,-4,nt,nt,84*,3.6
CN1CCN(C(=S)NC(=O)/C=C/c2cccs2)CC1,-2,4387,16,3,-9,11,2.2
COc1cc(NC(=O)c2ccco2)c(C(=O)O)cc1OC,0,23681*,-14,-5,3,-6,-3.2
CCCCN(CCCC)c1nc(-c2ccncc2)nc2ccccc12,4,5780,4,-9,5,-4,-5.4

# Further entries:
canonical_smiles,PrP 5UTR inh,Autofluor counter,BJeLR lethal,Mtb hypoxia inh,Mtb hypoxia inh growth,Sa ugtP lethal,RN4220 kill
COc1ccc(CN2CCN(c3ccccc3OC)CC2)c(OC)c1,-18,4077,9,2,-8,6,2.9
O=c1c(-c2ccco2)[n+]([O-])c2ccccc2n1OCc1ccccc1F,-22,5417,-6,6,6,-5,5.5
CCOC(=O)CSC(CC)C(=O)Nc1nnc(CC)s1 (stereo not given),-4,5797,-5,-2,10,-6,-13
CCOc1ccc(Oc2c(/C=N/NC(C)=O)c(C)nn2-c2ccccc2)cc1,0,1962,0,nt,nt,nt,nt
CCC(C(=O)NCc1ccco1)N(C(=O)CNS(=O)(=O)c1ccc(C)cc1)c1ccccc1F (stereo not given),-3,5692,2,12,11,5,0.1
c1ccc(-c2cn3c(n2)CCc2ccc4cccnc4c2-3)cc1,-11,9424,-5,nt,nt,nt,nt
Cc1ccc(-n2ncc3c(NCc4ccco4)ncnc32)c(C)c1,-8,6864,nt,14,21,5,1.2
C=CCN1CC(O)=C(c2ccccc2)C1=N,-28,8011,-1,2,9,5,2.1
Cc1noc(COc2ccc(OCc3nc(C)no3)cc2)n1,-20,4724,0,nt,nt,0,6.2
O=C(O)c1cc(-c2cccs2)nc2cc3c(cc12)OCCO3,-15,5825,7,nt,nt,2,8.6
O=C(/C=C/c1ccc([N+](=O)[O-])cc1)NCc1cccnc1,-10,2544,5,nt,nt,5,-1.8
NC(=O)c1ccc(NC(=O)COC(=O)/C=C/c2cccs2)cc1,-5,4687,-1,nt,nt,nt,nt
CCN(CC(=O)Nc1ccc2c(c1)OCCO2)c1nc(-c2cccnc2)nc2ccccc12,-9,4358,-2,4,6,1,-3.2
O=C(NN=C/C=C/c1ccc(Br)cc1)C(O)c1ccccc1 (stereo not given),nt,nt,nt,3,-1,-4,0.6
c1ccc2[nH]cnc2c1,-4,5465,-11,4,10,7,6.6
O=C(CCNS(=O)(=O)c1ccc(Cl)cc1)Nc1ccncc1,-7,3083,12,4,-3,9,9.3
COc1cc(CCC(=O)Nc2cccc(C(F)(F)F)c2)cc(OC)c1OC,-24,2214,-3,4,0,10,5.7
CCOC(=O)N1CCC2(CC1)C(C#N)=C(N)Oc1c2c(C)nn1-c1cccc(Cl)c1,-13,12642,-5,15,0,7,5.8
O=C(O)CCC(NS(=O)(=O)c1ccc(-c2ccccc2)cc1)C(=O)O (stereo not given),-8,6215,0,8,-6,5,-0.5
